Screening data (PubChem)
T cruzi repl: blocks replication of Trypanosoma cruzi; T. cruzi beta-gal in NIH3T3, luminescence, 90 h; inhibition, % (concentration not given with the values); 300,000 compounds, 1.4% hits;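 active = mean inhibition across valid replicates above about 55%, limit read from the data; inconclusive = mean below that limit but half or more replicates reach it; inactive = mean below it, under half of replicates reach it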;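 note: signal also drops with host cell toxicity which is not excluded here; 0% = plate median of DMSO wells and 100% = zero luminescence signal; higher percent means less beta-gal luminescence so fewer parasites; stock transfer was 50 nL into about 50 µL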
E coli growth: inhibitors of Escherichia coli growth | 330,000 compounds, 0.21% hits | OD600 absorbance (no concentration beside the values) | AID 1053175 | OD600, 23 h; active compounds read low;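 active = OD600 absorbance below the run mean of sample wells minus 3.6 SD, in any replicate, cut at about 0.56 in these data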;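 note: stock transfer was 300 nL into about 60 µL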
Ecoli rRNA inh: inhibits bacterial ribosomal RNA function over humanized ribosomes; GFP signal change (wild-type ribosome), % (concentration not given with the values); E. coli WT GFP vs humanized-ribosome RFP mutants, fluorescence, 24 h; active compounds read low; DMSO median 0, no signal -100; 350,000 compounds, 1.6% hits; AID 720706;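 active = significant combined selectivity score with lowered wild-type GFP, culture density cut under 30%, mutant RFP and density less affected; inactive = any of these conditions unmet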; note: one replicate is shown; some compounds called inactive have numbers as strong as hits
UCH37 inh: inhibitors of human deubiquitinating enzyme UCH37. 330,000 compounds, 0.33% hits. purified proteasome/UCH37, Ub-AMC cleavage fluorescence. inhibition, % (test concentration not listed);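 active = mean of two replicates above 20%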;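 note: 0% = compound-free wells with enzyme and 100% = wells lacking proteasome; stock transfer was 100 nL into about 20 µL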
Target sequence (Q9Y5K5 whole entry, looked up): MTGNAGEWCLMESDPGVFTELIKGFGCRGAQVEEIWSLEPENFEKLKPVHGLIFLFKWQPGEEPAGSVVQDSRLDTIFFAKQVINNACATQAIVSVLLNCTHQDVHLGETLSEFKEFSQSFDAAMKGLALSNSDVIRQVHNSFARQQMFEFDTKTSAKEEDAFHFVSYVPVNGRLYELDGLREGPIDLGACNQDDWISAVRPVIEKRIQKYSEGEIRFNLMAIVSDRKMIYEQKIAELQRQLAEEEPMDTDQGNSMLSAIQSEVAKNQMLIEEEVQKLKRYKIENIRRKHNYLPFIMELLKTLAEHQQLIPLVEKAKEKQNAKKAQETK
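Material: Human UCH37 enzyme supplied as purified proteasome complex | Schedule: 30 min preincubation with enzyme, 25 min cleavage at room temperature | Detection: AMC fluorescence 355/460 nm | Measure: % inhibition of Ub-AMC cleavage fluorescence | Controls: Wells without proteasome as full block, compound-free enzyme plus substrate as uninhibited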
Bfl-1 A1 inh: inhibitors of the anti-apoptotic protein A1, read as caspase activation | MEF A1-2A-BIM cells, Caspase-Glo 3/7 luminescence, 3 h; percent of clofoctol response, vehicle zero | caspase activation, % (test concentration not listed) | 330,000 compounds, 0.066% hits;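 active = over half of replicate activation scores above 10%, or exactly half above 10 with the replicate mean above 10; inconclusive = replicate mean below 10 yet half the replicates above 10; inactive = over half of replicates below 10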;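 note: wells of about 30 µL received 50 nL stock; many hits fall short of the cut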
FGF22 binding: shifts melting point of recombinant human FGF22. calls only at 9.99 µM. Q9HCT0. 340,000 compounds, 1.5% hits. recombinant FGF22 thermal shift, SYPRO orange fluorescence; percent of sucrose octasulfate shift, DMSO zero;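 active = melting point raised past a set limit in the mean and every replicate; inconclusive = no clear call; three in four hits are not shown here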
Target sequence (Q9HCT0 whole entry, looked up): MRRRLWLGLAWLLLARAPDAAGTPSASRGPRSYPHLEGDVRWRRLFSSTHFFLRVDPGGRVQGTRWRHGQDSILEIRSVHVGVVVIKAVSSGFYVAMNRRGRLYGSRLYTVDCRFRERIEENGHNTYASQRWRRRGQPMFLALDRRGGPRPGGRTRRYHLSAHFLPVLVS
Beta cell apopt: blocks beta cell apoptosis; INS-1E cytokine-induced death, ATP luminescence, 48 h; percent of positive-control rescue, neutral wells zero; protection from apoptosis, % (concentration not given with the values); 300,000 compounds, 0.8% hits;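 active = all replicates at 75% or more, or half of them and the mean; inconclusive = half reach 75% but not the mean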;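 note: 0% = cytokine-treated negative control wells and 100% = positive control rescue; higher means more ATP so stronger rescue from cytokine killing; wells of about 40 µL received 100 nL stock; the first replicate is given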
AF4-AF9 inh: MLL-AF4/AF9 protein interaction inhibition; AID 651704; AlphaScreen, biotin-AF4 peptide binding to FLAG-AF9; inhibition, % at 10 µM; 350,000 compounds, 0.47% hits;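 active = every replicate reaching a set inhibition limit, whatever the replicate mean, cut at about 25% in these data; inconclusive = mean inhibition reaches that limit but some replicates miss it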;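 note: 0% = plate neutral control median and 100% = total signal loss; the record names both 10 and 1 µM as test concentration; the first replicate is given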
Target sequence (P42568 whole entry, looked up): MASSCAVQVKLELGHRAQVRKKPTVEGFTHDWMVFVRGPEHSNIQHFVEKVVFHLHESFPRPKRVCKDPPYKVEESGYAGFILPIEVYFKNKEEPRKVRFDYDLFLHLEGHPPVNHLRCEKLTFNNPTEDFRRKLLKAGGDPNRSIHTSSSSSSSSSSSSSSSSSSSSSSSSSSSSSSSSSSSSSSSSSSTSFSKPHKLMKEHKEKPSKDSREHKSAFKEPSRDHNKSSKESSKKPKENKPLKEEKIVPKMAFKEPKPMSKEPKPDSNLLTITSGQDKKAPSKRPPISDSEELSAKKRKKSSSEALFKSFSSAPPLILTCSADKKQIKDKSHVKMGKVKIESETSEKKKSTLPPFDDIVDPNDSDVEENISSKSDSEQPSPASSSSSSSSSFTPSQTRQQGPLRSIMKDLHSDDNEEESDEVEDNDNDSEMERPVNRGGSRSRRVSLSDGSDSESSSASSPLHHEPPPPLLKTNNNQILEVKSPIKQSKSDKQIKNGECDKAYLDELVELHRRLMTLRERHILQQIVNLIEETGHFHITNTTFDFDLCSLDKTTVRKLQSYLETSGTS
Ecoli rRNA inh OD600: also measured in Ecoli rRNA inh; calls as there; OD600 change, %; measured here: OD600 growth;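 optical density of the mix in the first replicate; 0 = DMSO median and -100 = no signal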
Ecoli rRNA inh RFP: also measured in Ecoli rRNA inh; calls as there; RFP signal change, %; measured here: RFP humanized mutant strains;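 first replicate; 0 = DMSO median and -100 = no signal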
Starred values were filed as active, the others as inactive; i = inactive; ? = inconclusive; / = no result given; & = joins results of further samples.

item	smiles	T cruzi repl	E coli growth	Ecoli rRNA inh	Ecoli rRNA inh OD600	Ecoli rRNA inh RFP	UCH37 inh	Bfl-1 A1 inh	FGF22 binding	Beta cell apopt	AF4-AF9 inh
1	CC(C)N(C(=O)CSc1nnc(NC(=O)c2ccco2)s1)C(C)C	-2	0.67	-11	-15	-4.3	8.2	1.2	i	-8	0.0
2	O=C(NCc1ccc(Cl)cc1)C(=O)NCC1CCCN1S(=O)(=O)c1cccs1 (centres undefined)	13	0.65	-11	-13	-0.5	5.5	-0.1	i	-6	-1.0
3	C/C(=N\NC(=O)CCc1ccccc1)C1C(=O)c2ccccc2C1=O	17	/	-3	-1	-2.8	/	-3.7	i	17	-2.3
4	CCc1nn(C(C)C(=O)NC2CCCCCC2)c(=O)c2cc3occc3n12 (centres undefined)	-15	0.69	3	12	-1.5	-0.2	0.1	i	-5	3.1
5	Cc1cc(C)cc(NC(=O)C(Sc2nnc(C)c(=O)[nH]2)c2ccccc2)c1 (centres undefined)	6	0.7	-26	-22	-9.5	3.6	-0.1	i	-3	5.9
6	C=CCn1c(=O)c2ccc(C(=O)NCc3ccccc3)cc2n(Cc2ccccc2Cl)c1=O	-3	/	/	/	/	/	1.4	i	13	0.5
7	Cc1ccccc1NC(=O)Cn1nnc(-c2ccc(CN3CCC(C)CC3)cc2)n1	19	0.7	8	1	-5.4	2.7	0.2	i	-1	-5.3
8	O=C(Nc1cccc(-n2cccn2)c1)C1CCCN(Cc2cccc(F)c2F)C1 (centres undefined)	2	0.69	-13	-21	-1.4	6.4	-1.1	i	1	2.6
9	CN(C)C(=O)c1ccc(=O)n(Cc2ccc(Cl)cc2Cl)c1	-6	0.66	-1	5	0.8	2.6	-0.2	i	-9	-1.2
10	O=C(CCc1ccc(S(=O)(=O)NCc2ccccc2)cc1)NCc1ccco1	-18	0.65	-3	-2	-2.7	0.6	0.0	i	-1	-2.9
11	FC(F)(F)c1cccc(NC(=S)N2CCCCCC2)c1	-4	0.69	-13	-11	-4.7	6.1	-0.5	i	-6	-1.7
12	COc1ccc(CN=C(NS(=O)(=O)c2cccs2)SC)cc1	-2	0.64	/	/	/	0.2	0.0	/	4	/

Next part, starting with the last two of the part before.
item	smiles	T cruzi repl	E coli growth	Ecoli rRNA inh	Ecoli rRNA inh OD600	Ecoli rRNA inh RFP	UCH37 inh	Bfl-1 A1 inh	FGF22 binding	Beta cell apopt	AF4-AF9 inh
11	FC(F)(F)c1cccc(NC(=S)N2CCCCCC2)c1	-4	0.69	-13	-11	-4.7	6.1	-0.5	i	-6	-1.7
12	COc1ccc(CN=C(NS(=O)(=O)c2cccs2)SC)cc1	-2	0.64	/	/	/	0.2	0.0	/	4	/
13	O=C(Cc1ccccc1[N+](=O)[O-])NCc1ccc(Cl)cc1	-4	0.65	/	/	/	-3.5	-1.1	/	0	/
14	Cc1ccc(-c2nc(C3CCCN(S(=O)(=O)c4ccc(C)cc4)C3)no2)cc1 (centres undefined)	11	0.77	7	14	0.2	6.4	0.4	i	3	-3.8
15	Cc1ccccc1N1CCN(Cc2c[nH]c3ccccc23)CC1	60*	0.66	-20	-13	-0.8	3.3	-0.2	i	111*	?
16	CC(=O)Nc1ccc(S(=O)(=O)N[C@@H](C)C(=O)NC2CCCc3ccccc32)cc1 (some centres undefined)	/	0.69	10	5	-0.4	0.8	1.1	i	-2	0.6
17	CN1CCN(c2ccc(NC(=O)c3ccc(C(F)(F)F)cc3)cn2)CC1	22	0.71	8	4	-0.7	0.8	0.2	i	4	4.3
18	Cc1ccc(CNC(=O)C(OC(=O)c2cccs2)C(C)C)cc1 (centres undefined)	1	0.63	-4	1	-0.9	0.9	0.1	i	-3	-3.2
19	CCc1ccc(NC(=O)N(CCOC)C2CCN(C(C)=O)CC2)cc1	1	0.65	/	/	/	0.6	-0.4	/	10	/
20	Brc1ccc(CSc2nccn2-c2ccccc2)cc1	8	0.74	/	/	/	3.0	0.4	/	-7	/
21	Cc1ccc(NC(=O)CN2CCN(Cc3ccccc3)CC2)cc1Cl	15	0.63	/	/	/	6.6	0.8	i	-1	3.0
22	CCOC(=O)C1=C(c2ccccc2)N=c2s/c(=C\c3ccc(O)cc3)c(=O)n2C1c1cccs1 (centres undefined)	48	/	-2	0	-2.3	/	-0.6	i	8	16
23	O=C(CN1CCCC(O)C1)N1c2ccccc2Sc2ccc(C(F)(F)F)cc21 (centres undefined)	32	0.77	/	/	/	3.1	-1.0	/	-10	/
24	CCCc1c(O)nc(SC2CC(=O)N(c3ccc(C)c(Cl)c3)C2=O)[nH]c1=O (centres undefined)	-6	0.65	-17	-9	-3.1	-0.4	0.7	i	-1	-18
25	Cc1ccnc(NC(=O)Nc2cccc(F)c2)c1	1	0.75	/	/	/	2.0	-7.7	/	3	/
26	O=C(O)C1(c2ccccc2)CCN(S(=O)(=O)c2ccc(Cl)s2)CC1	-10	0.73	-22	1	-11	2.9	-0.4	i	3	-1.4
27	O=C(Nc1nc2ccccc2c2nc3ccccc3n12)c1ccc(F)cc1	-20	0.73	/	/	/	-100	0.2	/	1	/
28	CCC(C)(C(=O)NC1CCCC1)N(C(C)=O)c1ccc(C)cc1 (centres undefined)	-9	0.69	/	/	/	1.3	-0.3	/	-3	/
29	CCOC(=O)C1=C(CS(=O)(=O)c2ccccc2)NC(=O)NC1c1ccccc1OCC (centres undefined)	-6	0.71	9	1	2.2	5.4	-0.3	i	-8	-13
30	O=S(=O)(NCCCN1CCOCC1)c1ccc(Cl)cc1	-22	0.66	10	11	0.2	0.6	0.2	i	-3	-2.0
31	Nc1c(C(=O)NCc2ccco2)nnn1Cc1ccccc1	-5	0.67	/	/	/	1.0	0.2	/	-1	/
32	CCN(CC)c1ccc(NC(=O)COc2ccc(-n3cnnn3)cc2)cc1	/	0.66	5	7	0.6	1.0	-0.3	i	-5	15
33	CCOC(=O)N1CCC2(CC1)C(C#N)=C(N)OC1=C2C(=O)CC(C)(C)C1	-9	0.72	/	/	/	1.9	-0.9	/	-5	/
34	Cc1ccc(CNC(=O)C2CC(=O)OC23CCCC3)c(C)c1 (centres undefined)	-6	0.69	/	/	/	0.8	1.1	/	0	/
35	CCC(C)(C)n1nnnc1C(c1ccc(C)cc1)N1CCSCC1 (centres undefined)	0	0.65	/	/	/	-1.4	0.2	/	-2	/
36	Cn1c(COc2nnc(-c3ccc(Cl)cc3)c3ccccc23)nc2ccccc21	-11	0.72	/	/	/	-1.2	-0.3	/	-9	/

Just Bfl-1 A1 inh, Beta cell apopt and T cruzi repl (four entries from above):
# | compound | Bfl-1 A1 inh | Beta cell apopt | T cruzi repl
1 | CC(C)N(C(=O)CSc1nnc(NC(=O)c2ccco2)s1)C(C)C | 1.2 | -8 | -2
2 | O=C(NCc1ccc(Cl)cc1)C(=O)NCC1CCCN1S(=O)(=O)c1cccs1 (centres undefined) | -0.1 | -6 | 13
3 | C/C(=N\NC(=O)CCc1ccccc1)C1C(=O)c2ccccc2C1=O | -3.7 | 17 | 17
4 | CCc1nn(C(C)C(=O)NC2CCCCCC2)c(=O)c2cc3occc3n12 (centres undefined) | 0.1 | -5 | -15

Additional records follow.
item	smiles	T cruzi repl	E coli growth	Ecoli rRNA inh	Ecoli rRNA inh OD600	Ecoli rRNA inh RFP	UCH37 inh	Bfl-1 A1 inh	FGF22 binding	Beta cell apopt	AF4-AF9 inh
37	CCN(CC)CCCNC(=S)N1CCN(c2nc3ccccc3n2CC)CC1	-8	0.67	-6	-1	-3.1	4.0	1.5	i	8	1.8
38	CN(CCOc1ccccc1)C(=O)c1ccc2c(c1)OCO2	/	0.7	0	2	-2.1	-1.7	0.4	i	-4	-7.7
39	COc1ccc(F)cc1S(=O)(=O)NCC1CCCO1 (centres undefined)	2	0.61	2	3	-3.3	4.8	0.9	i	/	2.0
40	CCOC(=O)Cn1nc(C)c(NC(=O)COc2ccccc2)c1C	-14	0.7	3	10	-1.8	2.0	-0.1	i	-3	-0.9
41	C/C(N)=C(/C#N)C(=O)CSc1nc(C2CCCCC2)n(-c2ccccc2)n1	26	0.68&0.66	-46	-73	-11	7.6&4.4	1.1	i	-5	3.4
42	CCOC(=O)/C(=N\Nc1ccccc1Cl)N(C)C1CCCCC1	-7	/	8	16	-0.5	/	-0.6	i	-2	3.5
43	O=C(c1ccccc1)c1cccn1CC(=O)N1CCN(c2ccccc2)CC1	14	0.7	/	/	/	-0.5	1.3	/	-6	/
44	CCOC(=O)N1CCN(C(=O)c2cc(COc3ccc(OC)cc3Cl)on2)CC1	17	0.7	-25	-22	0.6	1.4	-0.6	i	/	0.0
45	COc1ccc(C(C(=O)NC2CCCC2)N(C(=O)c2snc(C(N)=O)c2N)c2ccccc2OC)cc1OC (centres undefined)	-9	/	2	-5	-3.7	/	-0.6	i	-7	-0.1
46	O=[N+]([O-])c1ccc2[nH]ncc2c1	-10	0.69	9	5	2.9	4.1	0.4	i	2	1.4
47	Cc1cc(C)c2nc(N(CCN(C)C)C(=O)c3ccc4ccccc4c3)sc2c1	33	0.67	-4	-25	-2.4	4.6	-0.8	i	1	0.3
48	CC1(C)Cc2c(ccc3ccccc23)C2=C(C(=O)N3CCCC3)C(=O)C(=O)N21	25	0.7	-26*	-13*	11*	9.1	/	i	/	-8.3
49	CCCCCSc1nc2c(c(=O)[nH]c(=O)n2C)n1C(C)C	15	0.77	-5	-2	-5.0	3.0	0.9	i	2	-24
50	CC1CCN(C(=O)COC(=O)c2cc(=O)[nH]c3ccccc23)CC1	/	0.69	2	3	-0.6	-28	1.0	i	-4	1.8
51	C1CCc2nnc(C3CC3)n2CC1	-6	0.71	23	19	1.6	5.1	0.6	i	5	-1.4
52	CCOC(=O)C(=O)c1c(-c2ccccc2)nc2ccccn12	-9	0.66	-10	-10	-0.4	3.7	0.4	i	-1	-2.1
53	COc1ccc(OC)c(S(=O)(=O)N2CCCCC2C(=O)N2CCN(c3ccccn3)CC2)c1 (centres undefined)	12	0.71	/	/	/	-0.5	0.7	/	-3	/
54	C/C(=N\NC(=O)COc1ccccc1)c1ccc(O)cc1	-11	/	4	-1	1.1	/	-1.8	/	7	-2.2
55	CCn1cc(CN2CCC(n3nccc3NC(=O)c3ccc(OC)cc3)CC2)cn1	15	0.63	10	17	-0.5	3.5	-0.2	i	-6	2.8
56	Cc1cccc(C(=O)OC(C)C(=O)NC2CCCc3ccccc32)c1O (centres undefined)	-7	0.61	3	8	-1.6	-46	0.6	/	-7	-5.3
57	CC(C)NC(=O)CN1C(=O)c2ccccc2S1(=O)=O	-9	0.66	16	11	2.6	0.3	0.0	i	-4	0.5
58	CCN1CCN(C(=O)c2cc(S(=O)(=O)N3CCCCC3)ccc2Cl)CC1	5	0.73	0	-4	-0.4	3.2	-0.9	i	-1	1.2
59	COc1cccc(N2CC(C(=O)OC(C)C(=O)c3ccccc3)CC2=O)c1 (centres undefined)	-11	0.69	/	/	/	4.8	-0.1	/	-3	/

Screen by screen, quoted from above.
Ecoli rRNA inh OD600, compounds 55 to 58, in order: 17, 8, 11, -4
T cruzi repl, compounds 55 to 58, in order: 15, -7, -9, 5

A portion of the library. The share of hits here may be higher or lower than overall.
